Source: PubChem (PCMD)
Biofilm kill mix: clotrimazole potentiators killing C. albicans biofilm, primary screen, 4-compound mixtures. C. albicans biofilm persisters + clotrimazole, fluorescence viability; primary screen in compound mixtures of four per well. inhibition, % at 7.6 µM. hit rate 0.02% among 120,000. AID 1242, 2008;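 active means inhibition above 30.3% in the primary screen of four-compound pools, then above 30% when the compound was retested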;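 further: compounds exposed to preformed 24 h biofilms for 48 h; the number belongs to the whole pool; some results filed as inactive read as strong as hits; inactives centre near 12; 0% = biofilm with clotrimazole alone and 100% = kill control; retested singly at about 60 µM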
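Test system: C. albicans CAF4-2 wild-type biofilms; buffer or medium: RPMI/MOPS medium, pH 7.0; schedule: 24 h biofilm formation, then 48 h compound exposure, 37 °C; detection: Alamar Blue fluorescence; measure: percent inhibition of biofilm viability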
* = called active by the depositor. The list is partial; the hit share may differ from the screen's.

The first 18 compounds (preview)
SMILES	Biofilm kill mix
CCOC(CCn1c(SCC(=O)Nc2cc(C)on2)nc2ccccc2c1=O)OCC	12
O=C1OCCC1Sc1nnc(-c2ccc(Cl)cc2)n1Cc1ccccc1 (stereo unspecified)	14
COc1ccc(OC)c(C(=O)COC(=O)c2cccnc2Cl)c1	12
COc1cc(-c2nc(-c3ccccc3)c(-c3ccc(F)cc3)[nH]2)cc2c1OCO2	19
OC(COCc1cccs1)CN1CCN(c2cccc(Cl)c2)CC1 (stereo unspecified)	19
Cn1nc([N+](=O)[O-])nc1S(C)(=O)=O	17
O=C(CCNc1ccc(Cc2ccncc2)cc1)c1cccc([N+](=O)[O-])c1	24
CCOC(=O)C1(CCOc2ccccc2)CCN(Cc2cccn2-c2ncccn2)CC1	0
Cc1c(Cl)c(C(=O)NNC(=S)Nc2ccc(F)cc2)nn1C	6
CCOC(=O)C1(CCCc2ccccc2)CCN(C(=O)Cn2nc(C)nc2C)CC1	25
O=C(/C(=C(\[O-])c1ccccc1)[n+]1ccc2ccccc2c1)c1ccccc1	22
COc1cc(-c2nc3c[n+](CC(=O)c4ccccc4)ccc3n2C)cc(OC)c1OC	18
O=C(CSc1cccc(C(F)(F)F)c1)NCc1ccccc1	4
O=C(NCc1ccc(-n2cccc2)cc1)c1cccc(F)c1	17
COCCOC(=O)C1=C(C)OC(N)=C(C#N)C1c1cc2cccc(C)c2nc1Cl (stereo unspecified)	-9
CCOc1ccc(Br)cc1S(=O)(=O)NCc1ccncc1	9
O=C(CC(C(=O)O)c1ccc(Cl)cc1)c1ccccc1 (stereo unspecified)	0
COC(=O)c1c(C)oc2ccc(N(C(=O)c3ccncc3)S(=O)(=O)c3ccc4ccccc4c3)cc12	14

This part in full (from the top)
SMILES	Biofilm kill mix
CCOC(CCn1c(SCC(=O)Nc2cc(C)on2)nc2ccccc2c1=O)OCC	12
O=C1OCCC1Sc1nnc(-c2ccc(Cl)cc2)n1Cc1ccccc1 (stereo unspecified)	14
COc1ccc(OC)c(C(=O)COC(=O)c2cccnc2Cl)c1	12
COc1cc(-c2nc(-c3ccccc3)c(-c3ccc(F)cc3)[nH]2)cc2c1OCO2	19
OC(COCc1cccs1)CN1CCN(c2cccc(Cl)c2)CC1 (stereo unspecified)	19
Cn1nc([N+](=O)[O-])nc1S(C)(=O)=O	17
O=C(CCNc1ccc(Cc2ccncc2)cc1)c1cccc([N+](=O)[O-])c1	24
CCOC(=O)C1(CCOc2ccccc2)CCN(Cc2cccn2-c2ncccn2)CC1	0
Cc1c(Cl)c(C(=O)NNC(=S)Nc2ccc(F)cc2)nn1C	6
CCOC(=O)C1(CCCc2ccccc2)CCN(C(=O)Cn2nc(C)nc2C)CC1	25
O=C(/C(=C(\[O-])c1ccccc1)[n+]1ccc2ccccc2c1)c1ccccc1	22
COc1cc(-c2nc3c[n+](CC(=O)c4ccccc4)ccc3n2C)cc(OC)c1OC	18
O=C(CSc1cccc(C(F)(F)F)c1)NCc1ccccc1	4
O=C(NCc1ccc(-n2cccc2)cc1)c1cccc(F)c1	17
COCCOC(=O)C1=C(C)OC(N)=C(C#N)C1c1cc2cccc(C)c2nc1Cl (stereo unspecified)	-9
CCOc1ccc(Br)cc1S(=O)(=O)NCc1ccncc1	9
O=C(CC(C(=O)O)c1ccc(Cl)cc1)c1ccccc1 (stereo unspecified)	0
COC(=O)c1c(C)oc2ccc(N(C(=O)c3ccncc3)S(=O)(=O)c3ccc4ccccc4c3)cc12	14
O=C(CN1C(=O)S/C(=C\c2ccc(Cl)cc2)C1=O)NNC(=O)c1ccccc1O	18
CC(=O)c1cccc(OCC(=O)N2CCN(c3ccc(C(F)(F)F)cn3)CC2)c1	9
CCOc1cc(/C=N/NC(=O)CCn2nc(C)cc2C)ccc1O	3
C/C(=N/NC(=O)Cc1cccs1)c1ccco1	8
CCc1ccccc1NCC(=O)Nc1ccccc1C(=O)OC	-3
Cc1cc(C)c(C)c(S(=O)(=O)N2CCNCC2)c1C	11
N#CCC(=O)Nc1ccc(C(F)(F)F)cc1N1CCOCC1	4
Cc1cc(C)cc(N(CC(=O)N/N=C/c2ccncc2)S(=O)(=O)c2ccccc2)c1	6
COc1ccc(-n2cccc2/C=C/[N+](=O)[O-])cc1	11
CCN1CCN(C(=O)Cn2cnc3sc(C)c(S(=O)(=O)N4CCN(c5ncccn5)CC4)c3c2=O)CC1	24
O=C(N1CCN(Cc2ccccc2)CC1)C(Cl)(Cl)Cl	9
FC(F)(F)c1ccc(N=Cc2sc(N3CCOCC3)nc2-c2ccccc2)cc1	16
CCC(C)(C)n1nnnc1C(c1ccccn1)N1CCN(c2cccc(OC)c2)CC1 (stereo unspecified)	14
COC(=O)C(CC(C)C)NC(=O)/C=C/c1ccc(Cl)cc1 (stereo unspecified)	14
O=C(O)c1c[nH]c2ccc(F)cc2c1=O	6
CN(C)c1ccc(-c2cccc(C3CC=CC4C3C(=O)N(Cc3ccccc3)C4c3ccc(C(F)(F)F)cc3)c2)cc1 (stereo unspecified)	16
Cc1ccc(S(=O)(=O)N(Cc2cc3ccccc3[nH]c2=O)c2cccc(C)c2)cc1	19
C=CCNC(=O)c1ccc(N(CC=C)S(C)(=O)=O)cc1	7
Cc1ccc(NC(=O)c2ccc(NCCCN3CCOCC3)c([N+](=O)[O-])c2)cc1Cl	13
CC1=NN(Cc2ccccc2)C(=O)C1	3
Cc1ccc(/C=N/Nc2nc(N3CCOCC3)nc(N3CCOCC3)n2)o1	8
CC1(C)Cc2c(sc(NC(=O)c3ccc4ncsc4c3)c2C(N)=O)C(C)(C)N1	13
COc1cccc(C2NC(=O)NC(C)=C2C(=O)OCC2CCCO2)c1 (stereo unspecified)	3
CCOc1ccc(NC(=S)N2CCC(c3nc4ccccc4[nH]3)CC2)cc1	16
CCC(=O)N1CCc2cc(Br)cc(S(=O)(=O)Nc3c(C)n(C)n(-c4ccccc4)c3=O)c21	15
Cc1ccsc1/C=N/Nc1ccc(Cl)nn1	34
CC1Cc2ccccc2N1C(=O)COC(=O)c1ccc(Cl)nc1 (stereo unspecified)	10
CN1/C(=C\C(=O)c2cncc(Br)c2)C(C)(C)c2ccccc21	-7
CCN(CC)C(=O)CCc1nnc(Cc2cccc(C(F)(F)F)c2)o1	18
O=C(c1ncc[nH]1)c1cccs1	10
COc1ccccc1CC1S/C(=N/N=C/c2ccco2)NC1=O (stereo unspecified)	18
CC(C)n1nc(C(=O)Oc2ccc(Cl)cc2)c2ccccc2c1=O	15
COc1cc(COCC(O)CN2CCN(CCN3C(=O)c4cccc5cccc(c45)C3=O)CC2)cc(OC)c1OC (stereo unspecified)	13
COC(=O)C1=NN(C(C)=O)C2(CC(=O)N(c3cc(C)cc(C)c3)C2=O)C1 (stereo unspecified)	9
S=C(NCCc1ccccn1)Nc1ccc(Cl)cc1Cl	10
O=C(CSCC(=O)N1CCCCC1)Nc1nc(-c2ccccc2)c(-c2ccccc2)s1	12
CC(C)C(=O)NC(c1cccs1)c1cc([N+](=O)[O-])c2cccnc2c1O (stereo unspecified)	19
Cc1ccc(N2CCN(S(=O)(=O)N3CCOCC3)CC2)cc1C	9
CCCCC(CCCCl)C(=O)Nc1ccccc1 (stereo unspecified)	9
Cc1cc(C(=O)NCC2COc3ccccc3O2)c2ccccc2n1 (stereo unspecified)	1
COc1ccc(N=Nc2nc(-c3ccccc3)c(-c3ccccc3)[nH]2)cc1	16
COc1cccc(C(=O)Oc2cc(C)[nH]c(=O)c2[N+](=O)[O-])c1OC	17
Continued.
SMILES	Biofilm kill mix
COc1ccc(OC)c(NC(=O)c2ccno2)c1	9
CSc1nc2c(c(=O)[nH]1)C(c1ccc(F)cc1)CC(=O)N2 (stereo unspecified)	12
O=C(NCc1nnc(SCC(=O)N2CCCC2)o1)c1ccco1	10
Cc1c2cnn(CC(=O)Nc3c(F)c(F)cc(F)c3F)c(=O)c2c(C)n1Cc1ccccc1F	9
Nc1nnc(SCC(=O)OCC(=O)Nc2ccccc2F)s1	4
COc1ccc(-n2c(=S)[nH]c3sc(-c4ccccc4)cc3c2=O)c(OC)c1	22
CC(=O)N1CCc2ccc(S(=O)(=O)N3CC(C)OC(C)C3)cc21 (stereo unspecified)	16
Cc1cc(C)nc(NC(=O)c2cccs2)n1	15
CC(C)(C)c1ccc(N2C(=O)CC(C/C=C/c3ccccc3)C2=O)cc1 (stereo unspecified)	12
CC(C)c1ccccc1NC(=O)c1ccccc1NC(=O)C1CCCCC1	22
C[C@H](NC(=O)OCc1ccccc1)C(=O)NNC(=O)[C@H](C)NC(=O)OCc1ccccc1	9
COc1ccc(C(=O)O)cc1S(=O)(=O)N(CCc1ccccc1)Cc1ccccc1	16
COc1ccc(C(=O)NCC(=O)N/N=C(C)\C=C\c2ccccc2)cc1OC	6
COc1ccc(Cc2n[nH]c(=S)n2C)cc1Br	2
COCc1cc(=O)oc2cc(NS(=O)(=O)c3ccc(C)cc3)ccc12	21
CN(C)c1ccc(/C=N/NC(=O)c2ccc(CN3CCOCC3)cc2)cc1Br	21
Cc1ccc(-c2nc3sc(C(N)=O)c(N)c3c3c2CCCC3)cc1	14
CCOC(=O)C(=O)NC(C)CCc1ccccc1 (stereo unspecified)	7
COc1ccccc1C(=O)NCC(=O)N/N=C/c1cc(Br)ccc1OC(=O)/C=C\c1ccco1	9
COC(=O)c1ccccc1OCCN1CCCCCC1	3
O=C(N/N=C/c1sc(=O)n(-c2ccccc2)c1Cl)c1ccncc1	2
CCn1nnnc1SCC(=O)Nc1nc2ccccc2s1	24
O=C(Nc1ccc(Cl)cc1)c1cc2c(cc1O)[nH]c1ccccc12	21
O=C(c1cccnc1Cl)N1CCOCC1	17
CCOC(=O)N1c2ccccc2C=CC1OCC (stereo unspecified)	13
COc1ccc(OC)c2[nH]c(=O)c(CCNC(=O)C(=O)c3c[nH]c4ccccc34)cc12	6
O=S(=O)(CC(CN1CCCCC1)N1CCCCC1)c1ccccc1 (stereo unspecified)	27
O=c1c(Cl)cc(Cl)nn1-c1ccccc1	8
Cc1cc(C)n2nc(SCc3nnc(-c4ccccc4Br)o3)nc2n1	7
CCOC(=O)N1CCN(c2c(N3CCN(c4ccc(F)cc4)CC3)c(=O)c2=O)CC1	21
O=C(NCc1ccccc1)Nc1cccn(Cc2ccccc2F)c1=O	9
O=S1(=O)NC(=NCC(c2ccco2)N2CCCCC2)c2ccccc21 (stereo unspecified)	17
CCc1ccc(C(=O)NNC(=O)CCN2CCN(Cc3ccccc3)CC2)cc1	15
CC(=O)c1ccc(OCC(=O)NCC(c2ccco2)N2CCCCC2)cc1 (stereo unspecified)	7
CCOC(=O)Oc1ccc(C(=O)OCCCN(C)C)cc1OC	2
O=C(CSc1nnc(-c2ccc(Cl)cc2)n1-c1ccccc1)N/N=C/c1ccccc1C(=O)O	9
CS/C(N)=N/C(=S)Nc1cccc(Cl)c1	17
Cc1ccc(/C=C2\SC(=S)N(CC(=O)Nc3cccnc3)C2=O)cc1	2
CCN(CC)CCCNCC(=O)Nc1cc(C)on1	2
O=[N+]([O-])c1ccc2nc(-c3ccccc3)[nH]c2c1	13
N#C/C(=C/c1cn[nH]c1-c1ccc(Br)cc1)C(=O)O	6
C[C@@H](C(=O)Nc1ccc2ccccc2c1)[C@@H]1C[C@@]1(C)[C@@H](NC(=O)c1ccccc1)c1ccccc1	9
S=C(c1cn(CCOc2cccc3ccccc23)c2ccccc12)N1CCCC1	15
CCOC(=O)c1ccc(S(=O)(=O)Nc2cc(C(=O)O)ccc2Cl)cc1	18
Cc1nn(CC(=O)N2CCc3ccccc3C2)c(C)c1[N+](=O)[O-]	26
CCO[C@@H]1OC(C(=O)N2CCOCC2)=C[C@H](C)[C@H]1CCCO	18
CC(C)Sc1nnc([C@H](Cc2ccccc2)NC(=O)OC(C)(C)C)o1	24
O=C(Nc1ccccc1)C1=C[C@H](c2ccc(Br)cc2)C[C@H](OCc2ccc(CO)cc2)O1	14
O=C(Cn1cc(C(F)(F)F)cc(Cl)c1=O)Nc1cccc(Cl)c1	-8
O=C(CN1C(=O)NC2(CCCCC2)C1=O)NCc1ccc2c(c1)OCO2	5
O=C(CSc1n[nH]c(=O)[nH]c1=O)NC1CC1	8
CCOc1ccc(N2C(=O)CC(n3ccc(C)n3)C2=O)cc1 (stereo unspecified)	6
Cc1cc(C)nc(NS(=O)(=O)c2ccc(NS(=O)(=O)c3ccsc3)cc2)n1	14
CCOC(=O)C1=NN(C(=O)COc2ccccc2)C(O)(c2ccc(Br)cc2)C1 (stereo unspecified)	2
O=C(Nc1nc2c(ccc3ccccc32)s1)c1cc([N+](=O)[O-])ccc1N1CCOCC1	10
C[n+]1cc(C(=O)N2CCCCC2)ccc1/C=C/c1c[nH]c2ccccc12	30
Cc1ccc(N2C(=O)CC3(CCCC3)CC2=O)cc1	17
COC(=O)C1=C(C)OC(N)=C(C#N)C1c1cc2cc(C)ccc2nc1Cl (stereo unspecified)	28
O=C(c1cccc(N2CCCC2=O)c1)N1CCN(c2ccccc2)CC1	15
O=S(=O)(c1ccc(N=C2NN=C(c3cc(F)ccc3F)CS2)cc1)N1CCOCC1	3
Following part:
SMILES	Biofilm kill mix
COc1ccc(NC(=O)CSc2nc(O)cc(=O)[nH]2)c(OC)c1	14
Oc1ccc(Br)cc1C=Nc1ccc(Cl)cc1	5
CCCCNC(=O)Nc1nc2ccccc2s1	19
COc1ccccc1NC(=S)NCCC(c1ccccc1)c1ccccc1	10
CCOC(=O)C1CCCN(c2c(NCCc3ccc(Cl)cc3)c(=O)c2=O)C1 (stereo unspecified)	31
CC(=O)Nc1ccc2nc3ccccc3nc2c1	24
CCc1cccc(C)c1NC(=S)NCCc1c(C)[nH]c2ccc(C)cc12	13
CSCCC1NC(=O)N(C(C)C(=O)Nc2cc(Cl)cc(Cl)c2)C1=O (stereo unspecified)	16
CCN(CC)S(=O)(=O)c1ccc(C)c(NC(=O)CN(C)C)c1	25
CCCCOc1ccc(C2CCC(C(C)=O)C(C)C2)cc1 (stereo unspecified)	7
COC(=O)C1=C(O)/C(=C\c2cc(C)n(-c3ccccc3F)c2C)N=C1C	0
